# Screening data from PubChem.
# ALR inh – inhibitors of human ALR sulfhydryl oxidase, primary screen, biochemical, H2O2 detection, HRP-luminol luminescence, single point | 3.8% of 290,000 active | AID 485317, 2010 | FAD-linked sulfhydryl oxidase ALR (Homo sapiens), P55789 | purified ALR, DTT oxidation | inhibition, % (test concentration not listed);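 active = mean and each replicate at 75% or more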;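 note: stock transfer was 7.5 nL into about 7.5 µL; 0% = neutral wells and 100% = wells with inactivated enzyme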
# HNF4A DNA FP – change in binding of human HNF4A to DNA, primary screen, biochemical, fluorescence polarization, FITC-DNA. Hepatocyte nuclear factor 4-alpha (Homo sapiens), P41235. 1 h. activity change, % at 10 µM. 0.3% of 360,000 active. AID 1224865, 2016; in the data active = activity change above about 30%, passing the limit was not always enough;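 note: controls were the assay level and a saturating level of protein; the project sought stronger binding though the title names inhibitors; some compounds called inactive have numbers as strong as hits; positive values seem to mean higher polarization but the record does not say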
# B2AR ag – beta2AR agonists driving receptor internalization, primary screen, cell-based, FAP fluorogen, flow cytometry | Beta-2 adrenergic receptor (Homo sapiens), P07550 | Am2.2-beta2AR cells; reference of the scale not given here | response, % (test concentration not listed) | 0.43% of 340,000 active;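 active = response above a set limit, near 3 SD of response in nonfluorescent compounds, cut at about 42% in these data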;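 note: stock transfer was 100 nL into about 11 µL; a reference agonist was the positive control; negative values mostly stem from fluorescent compounds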
# Target sequence (P07550 whole entry, looked up): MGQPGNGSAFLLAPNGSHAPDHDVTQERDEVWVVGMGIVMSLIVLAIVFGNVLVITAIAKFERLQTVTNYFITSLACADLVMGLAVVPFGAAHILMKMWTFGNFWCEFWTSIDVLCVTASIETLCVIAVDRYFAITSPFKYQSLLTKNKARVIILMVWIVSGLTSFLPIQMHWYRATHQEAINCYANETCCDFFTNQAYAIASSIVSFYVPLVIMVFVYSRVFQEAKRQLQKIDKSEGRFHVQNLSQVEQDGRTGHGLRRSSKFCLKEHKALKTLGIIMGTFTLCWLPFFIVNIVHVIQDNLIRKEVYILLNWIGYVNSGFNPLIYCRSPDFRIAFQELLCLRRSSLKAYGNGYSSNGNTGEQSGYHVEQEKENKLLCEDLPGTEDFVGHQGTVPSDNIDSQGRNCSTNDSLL
# UCH37 inh – inhibitors of human UCH37 deubiquitinase, primary screen, biochemical, Ub-AMC cleavage, fluorescence | Ubiquitin carboxyl-terminal hydrolase isozyme L5 (Homo sapiens), Q9Y5K5 | purified proteasome/UCH37 | inhibition, % (no concentration beside the values) | 0.33% of 330,000 active | AID 588478, 2011;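 active = mean of two replicates above 20%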;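 note: 0% = compound-free wells with enzyme and 100% = wells lacking proteasome; stock transfer was 100 nL into about 20 µL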
# Target sequence (Q9Y5K5 whole entry, looked up): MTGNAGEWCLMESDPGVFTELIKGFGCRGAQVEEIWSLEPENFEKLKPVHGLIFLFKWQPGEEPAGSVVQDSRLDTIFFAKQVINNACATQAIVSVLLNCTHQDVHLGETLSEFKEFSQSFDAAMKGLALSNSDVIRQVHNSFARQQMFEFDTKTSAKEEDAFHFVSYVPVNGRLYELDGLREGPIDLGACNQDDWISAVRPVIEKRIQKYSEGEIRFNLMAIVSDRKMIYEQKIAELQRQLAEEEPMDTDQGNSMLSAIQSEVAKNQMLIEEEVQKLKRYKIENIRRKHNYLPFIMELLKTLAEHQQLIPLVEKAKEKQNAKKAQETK
#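 assay system = human UCH37 enzyme supplied as purified proteasome complex | amount = proteasome at 0.15 nM in the dispensed enzyme solution | schedule = 30 min compound-proteasome preincubation then 25 min substrate reaction, room temperature | measured by = fluorescence, ex 355 nm, em 460 nm | benchmarks = no-proteasome wells (full inhibition) and compound-free wells (no inhibition)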
# LANA-H2A inh – blockers of LANA interaction with H2A/H2B – biochemical, FP readout, HTS, primary screen; Protein LANA1 (Human herpesvirus 8 type P (isolate GK18)), Q9QR71; cell-free LANA-H2A/H2B peptide, fluorescence polarization; inhibition, % (test concentration not listed); 0.6% of 320,000 active; AID 2629, 2010; in the data active = inhibition mostly above about 10%, no sharp cut-off; inactive = mostly below about 6.7%;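 note: stock transfer was 7.5 nL into about 10 µL; 0% = median of vehicle wells and 100% = median of positive control wells; one replicate is shown; the record names a cut of 25% in any replicate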
# FGF22 binding – binders of human FGF22 protein, primary screen, FGF22 synaptogenesis inhibitor project, biophysical, thermal shift, single point; Fibroblast growth factor 22 (Homo sapiens), Q9HCT0; recombinant FGF22 thermal shift, SYPRO orange fluorescence; percent of sucrose octasulfate shift, DMSO zero; calls only at 9.99 µM; 1.5% of 340,000 active; AID 651658, 2012;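 active = melting point raised past a set limit in the mean and every replicate; three in four hits are not shown here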
# Target sequence (Q9HCT0 whole entry, looked up): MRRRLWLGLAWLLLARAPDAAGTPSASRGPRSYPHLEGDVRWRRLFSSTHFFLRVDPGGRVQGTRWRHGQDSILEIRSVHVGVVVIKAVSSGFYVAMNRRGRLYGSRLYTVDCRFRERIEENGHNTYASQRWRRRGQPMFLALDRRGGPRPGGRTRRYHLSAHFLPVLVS
# E coli growth – E. coli growth inhibition, primary screen, OD600; Escherichia coli growth, 23 h; hits give low values; OD600 absorbance (no concentration beside the values); 0.21% of 330,000 active; AID 1053175, 2014;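 active = OD600 absorbance below the run mean of sample wells minus 3.6 SD, in any replicate, cut at about 0.56 in these data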;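 note: stock transfer was 300 nL into about 60 µL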
# Active calls of the source: *; i = inactive; nt = not tested or not shown.
SMILES,ALR inh,HNF4A DNA FP,B2AR ag,UCH37 inh,LANA-H2A inh,FGF22 binding,E coli growth
CC(C)(C)C(=O)CN1C2=NCCCN2c2ccccc21,nt,-1.8,-20.2,4.9,4.5,i,0.644
O=C1/C(=C/c2ccc(O)cc2)CCc2ccc([N+](=O)[O-])cc21,nt,-1.0,-18.2,4.6,2.5,i,0.688
CCOC(=O)Cc1csc(NC(=O)C(C)(C)C)n1,-0.8,3.2,-6.3,1.3,-2.7,nt,0.652
CCOc1ccccc1NC(=O)NC1Cc2ccccc2C1,-4.2,-0.3,5.1,2.2,-1.0,nt,0.701
COc1cc(OC)cc(C(=O)NCC(=O)NCCN2C(=O)S/C(=C\c3ccccc3Cl)C2=O)c1,nt,0.6,9.8,5.8,7.9,i,0.717
O=C(CC1S/C(=N/N=C2CCCCCC2)NC1=O)Nc1ccccc1C(F)(F)F (stereo unspecified),-1.3,1.4,5.7,2.1,-5.1,i,0.711
Cc1ccc(-n2c(C)nnc2SCC(=O)NC2CCCC2)cc1,-7.0,1.0,-1.1,0.7,-9.1,i,0.726
N=C1C(c2nc(-c3ccc(Br)cc3)cs2)=C(O)CN1NC(=O)c1ccc([N+](=O)[O-])cc1,21.0,1.3,3.3,4.1,-3.0,i,0.672
Cc1ccc2c(c1)sc(=NC(=O)C1CC1)n2C,nt,0.2,4.7,5.9,1.4,i,0.694
CCC(c1nnnn1Cc1ccc2c(c1)OCO2)N1CCN(c2ccc(OC)cc2)CC1 (stereo unspecified),87.8*,-1.1,9.2,0.8,-2.4,nt,0.691
CCOC(=O)C1(Cc2ccccc2C)CCCN(Cc2ccc(NC(C)=O)cc2)C1 (stereo unspecified),-1.7,3.0,-0.2,0.9,-4.3,i,0.679
O=C(N/N=C/c1cccn1-c1ccccc1)c1ccncc1,-8.3,-2.3,-2.6,nt,1.4,i,nt
O=C(NCC1CCCO1)c1cc(S(=O)(=O)N2CCCC2)c(Cl)cc1Cl (stereo unspecified),-47.1,1.4,0.8,4.5,0.9,i,0.68
Cc1cccc(CCNS(=O)(=O)c2ccc3c(c2)NC(=O)C(C)S3)c1 (stereo unspecified),2.3,1.1,1.9,1.2,-9.4,i,0.688
CCC(C)NC(=O)c1cc(C)no1 (stereo unspecified),-0.8,1.4,-0.4,-0.6,5.6,nt,0.67
O=C(CSC(=S)N1CCCC1)c1ccccc1,10.3,1.4,-2.8,0.3,3.7,i,0.724
CC(C)c1nc2cc(C(=O)N3CCN(c4cnccn4)CC3)ccc2o1,6.6,0.9,0.5,-7.9,-5.4,i,0.668
Oc1ccccc1-c1nc(NCCN2CCOCC2)c2ccccc2n1,-2.5,-7.8,25.9,8.0,-1.9,nt,0.658
O=C(NCc1ccc(F)cc1)c1cccc(S(=O)(=O)N2CCOCC2)c1,20.5,1.4,-2.1,2.8,1.1,i,0.709
CN(C)CCc1c[nH]c2ccc(Cn3cncn3)cc12,-9.1,nt,nt,3.0,-6.4,nt,0.7
CCC(C)C(NC(=O)c1ccccc1)C(=O)Nc1ccc(S(=O)(=O)Nc2cc(C)nc(C)n2)cc1 (stereo unspecified),nt,1.1,-8.6,1.4,nt,i,0.722
Cn1c(=O)c2cn(-c3cccc4ccccc34)cc2n(C)c1=O,-16.6,-1.0,-8.2,2.9,-4.2,nt,0.693
COc1cccc(NC(=O)c2cccc(C(=O)Nc3cccc(OC)c3)n2)c1,-2.1,-1.1,2.2,-29.2,1.1,i,0.67
Cc1ccc(NC(=O)C2C3C=CC4(O3)C2C(=O)N(CCCN2CCCC(C)C2)C4C(=O)NC2CCCCC2)cc1 (stereo unspecified),-7.3,-0.2,4.8,1.3,5.0,i,0.668
C/C(=N\N1CCN(Cc2ccc(Cl)cc2)CC1)c1ccc(F)cc1,-19.5,-0.1,1.7,nt,-2.9,i,nt

# Quoted from above for reference:
SMILES,ALR inh,HNF4A DNA FP,B2AR ag,UCH37 inh,LANA-H2A inh,FGF22 binding,E coli growth
Cc1ccc2c(c1)sc(=NC(=O)C1CC1)n2C,nt,0.2,4.7,5.9,1.4,i,0.694
CCC(c1nnnn1Cc1ccc2c(c1)OCO2)N1CCN(c2ccc(OC)cc2)CC1 (stereo unspecified),87.8*,-1.1,9.2,0.8,-2.4,nt,0.691

# Carrying on.
SMILES,ALR inh,HNF4A DNA FP,B2AR ag,UCH37 inh,LANA-H2A inh,FGF22 binding,E coli growth
CCN([C@H](CO)CC(C)C)S(=O)(=O)c1ccccc1,nt,-2.7,-4.4,-1.9,nt,i,0.671
Cc1ccc(C(=O)/C=C/Nc2ccc3c(c2)OCO3)cc1,nt,3.5,8.4,-4.4,1.7,nt,0.783
CCOC(=O)CC1COCCN1C(=O)c1cc(COc2ccc(F)c(F)c2)on1 (stereo unspecified),-14.3,3.1,-2.0,0.5,-3.3,i,0.695
O=C(NC1CCCC1)c1ccc(CS(=O)(=O)c2ccc(Br)cc2)o1,nt,0.9,-16.4,4.9,2.3,i,0.729
O=C(C[C@@H]1C/C=C\CC[C@@H](Cc2ccc(F)cc2)C(=O)OC[C@@H]2CCCN2C1=O)N[C@H](CO)Cc1ccccc1,nt,-3.7,8.6,nt,nt,i,nt
CS(=O)(=O)Nc1cccc(C2=NN(C(=O)c3ccco3)C(c3cccs3)C2)c1 (stereo unspecified),2.7,-0.2,1.4,3.0,0.6,i,0.687
N#Cc1c(-c2ccccc2)cc(-c2ccc(O)cc2)nc1N,99.3*,2.3,-10.4,-212.1,-2.7,i,0.634
O=[N+]([O-])c1ccc(N=Nc2c(O)[nH]c3ccc(F)cc23)cc1,3.9,0.6,-0.9,7.1,3.4,i,0.719
COc1ccc(OC)c(Nc2nc(N)c([N+](=O)[O-])c(NC3CCCCC3)n2)c1,-15.5,1.7,-2.3,4.1,-0.8,i,0.709
Cc1ccc2nc(/C(C#N)=C\c3ccc(N4CCCCC4)c([N+](=O)[O-])c3)[nH]c2c1,4.1,-10.0,7.3,11.6,0.7,nt,0.728
CN(C(=O)c1ccc(N2CCCCC2)c([N+](=O)[O-])c1)C1CCS(=O)(=O)C1 (stereo unspecified),-5.6,1.3,0.6,1.7,2.0,i,0.706
COc1cc(OC)c(NC(=O)c2cccc(F)c2)cc1Cl,-28.3,2.2,2.5,3.0,2.6,nt,0.671
COc1ccc(OCCSc2nnc3c(Cl)cc(Cl)cn23)cc1,-7.2,-1.5,-9.8,0.6,-0.2,nt,0.694
CN1CCc2nc(SCCOc3ccccc3)c(C#N)cc2C1,-8.2,-0.6,1.0,-2.8,1.7,nt,0.638
CCOc1ccc(N/C(SCc2cccc([N+](=O)[O-])c2)=C(/C#N)C(N)=O)cc1,98.9*,-2.9,-4.6,13.4,i,i,0.677
CCOC(=O)c1c(NC(=O)c2nc3n(n2)C(C(F)F)CC(C)N3)sc2c1CCCC2 (stereo unspecified),10.4,2.7,10.6,-316.4,-8.5,i,0.729
COc1ccc(CCNC(=O)C(=O)NCC2CCCN2S(=O)(=O)c2cc(C)ccc2C)cc1 (stereo unspecified),-10.2,1.3,25.0,-0.4,2.8,i,0.642
O=C(N[C@@H]1C/C=C\C[C@H](CC(=O)N(CCO)Cc2ccccc2)C(=O)NC[C@@H](c2ccccc2)OC1=O)OCC1c2ccccc2-c2ccccc21,-5.5,-3.8,8.9,2.5,4.4,i,nt
COc1ccc(S(=O)(=O)N2CCCCCC2)cc1C(=O)OCC(=O)NC1CCS(=O)(=O)C1 (stereo unspecified),-2.1,2.2,-2.6,-1.6,3.8,i,0.694
O=C(c1ccc2c(c1)OCO2)N(c1ccc(Br)cc1)C1C=CS(=O)(=O)C1 (stereo unspecified),-4.7,2.1,4.5,-1.4,1.4,i,0.733
CCOCC(=O)Nc1nc2ccc(OCC)cc2s1,47.4,3.7,-7.6,1.3,-1.4,nt,0.653
COc1ccccc1-c1noc(-c2ccccc2)n1,nt,0.0,-3.0,nt,-0.3,nt,nt
CCOc1ccc(N2CC(C(=O)NC3CCSC3=O)CC2=O)cc1 (stereo unspecified),nt,0.2,1.2,0.4,3.1,i,0.609
O=C(NCCCN1CCOCC1)c1ccc2c(c1)N(Cc1cccc(F)c1)C(=O)c1ccccc1S2,-2.5,-1.4,17.0,7.3,-7.6,i,0.69
COc1ccc(CCCC(=O)O)c(C)c1,-10.5,2.6,7.5,5.3,-4.1,nt,0.721
# Going on with the list.
SMILES,ALR inh,HNF4A DNA FP,B2AR ag,UCH37 inh,LANA-H2A inh,FGF22 binding,E coli growth
COc1ccc(C(=O)COC(=O)c2cc3ccccc3oc2=O)c(OC)c1,-4.5,2.3,-8.5,-12.6,2.8,i,0.619
Cc1cc(C)c(C#N)c(SCC(=O)N2CCCCC2)n1,5.0,-3.7,2.8,2.9,-4.0,nt,0.717
O=C(NCCCN1CCOCC1)C1CCC(=O)N1C1CCCCC1 (stereo unspecified),5.9,1.0,-2.1,1.1,2.1,nt,0.725
COc1ccc(NC(=S)NCCc2ccc(Cl)cc2)c(OC)c1,-9.7,-2.2,-8.7,6.0,0.7,nt,0.735
O=[N+]([O-])c1ccc(CN2CCOCCOCCOCC2)cc1,0.5,1.8,8.9,0.2,-3.7,i,0.633
CCN(CC)CCN(C(=O)CCOc1ccccc1)c1nc2ccc(F)cc2s1,67.4,-0.1,-10.9,2.1,2.7,i,0.683
Cc1ccccc1Cc1c(C)nc2ncnn2c1C,-13.6,-2.9,-0.6,3.5,-2.4,nt,0.648
O=C(COC(=O)CCSc1ccccc1)Nc1ccc(F)cc1Cl,-9.6,-2.7,1.5,0.9,6.3,i,0.694
N#CC1(C#N)C(c2ccccc2)OC23CCCCC2C1(C#N)C(=N)O3 (stereo unspecified),-33.5,-29.6,-1.9,-118.9,8.2,nt,0.612
CC(C)C(C(=O)N1CCOCC1)N1C(=O)c2ccccc2C1=O (stereo unspecified),3.7,-4.4,-12.2,0.2,0.8,i,0.677
Cc1ccccc1CNC(=O)CCC(=O)N1CCOc2ccccc21,-0.8,1.0,-6.0,5.5,3.3,i,0.805
C=CCSc1nc2c(c(=O)[nH]c(=O)n2C)n1C/C=C(/C)Cl,-1.0,-3.3,-4.5,1.8,-2.1,nt,0.786
CCN(CC)c1ccc(Nc2nc(Cl)ncc2Br)cc1,98.9*,1.0,12.2,3.5,2.8,i,0.662
CC(C)CNC(=S)NC1CC2CCCC(C1)N2Cc1cccs1 (stereo unspecified),-0.2,-1.4,-3.6,3.7,0.6,i,0.685
CC/C(=N\NC(=O)c1c[nH]c2ccccc12)c1cccs1,-0.2,-1.4,-0.4,nt,-2.6,i,nt
CCOC(=O)CC1=NN(c2ccccc2)C(=O)/C1=C\c1ccc(OC)cc1OC,-16.5,-1.6,6.5,35.5*,4.5,nt,nt
Cc1ccc(Oc2nc(-c3cccnc3)nc3ccccc23)c([N+](=O)[O-])n1,-1.3,-2.6,8.4,-0.4,-3.1,i,0.752
Cc1ccc(NC(=O)C[n+]2ccccc2)cc1[N+](=O)[O-],-11.8,2.2,6.2,2.3,-2.3,nt,0.686
N=c1c[n+](-c2ccc(Cl)cc2)[n-]o1,-13.0,-1.8,-2.4,3.4,2.8,nt,0.725
Cc1ccc(CS(=O)(=O)c2ccccc2-c2nnc(-c3ccc(Cl)cc3)o2)cc1,-5.5,-0.6,-9.1,-4.4,0.7,nt,0.751
CCOC(=O)C(NC(=O)c1ccccc1F)(Nc1cc(C)on1)C(F)(F)F (stereo unspecified),-4.2,1.1,7.4,4.4,-1.5,nt,0.702

# The list is partial. The share of hits here may be higher or lower than overall.
